Screens from PubChem.
YB-1 expr inh = inhibitors of YB-1 gene expression, primary screen, cell-based, fluorescence; U2OS, qRT-PCR YB-1 vs CDIP delta delta Cp, 16 h; hits give high values; zero = DMSO, each unit about twofold; delta delta Cp (YB-1 minus CDIP) (no concentration beside the values); 30,000 compounds, 0.37% hits;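 active = delta delta Cp rounded down to an integer at or above 3, about 3 SD of DMSO wells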;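 note: higher means less YB-1 transcript or more CDIP transcript relative to DMSO; stock transfer was 100 nL into about 100 µL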
MITF inhib = inhibitors of MITF, primary screen, MITF inhibitor project, cell-based, luminescence. TRPM1 promoter luciferase, 24 h. inhibition, % (test concentration not listed). 37,000 compounds, 0.28% hits;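 active = most replicates at 85% or more, or half of them and the mean; inconclusive = half reach 85% but not the mean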;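 note: human melanocyte line stably carrying TRPM1 promoter luciferase reporter; 0% = vehicle wells and 100% = a positive control; the first replicate is given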
PD-1 reverse act = activators reversing PD-1 mediated T-cell inhibition, primary screen, luminescence, primary human CD4 T cells, PD-L1 beads; CellTiter-Glo 96 h; activation, % (concentration not given with the values); 29,000 tested, under 10 active;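 active = replicate mean of 50% or more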;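 note: 0% = median vehicle wells and 100% = positive control; 100 nL library stock added to about 50 µL; numbers are from one replicate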
Hedgehog inh = Hedgehog pathway signaling inhibitors, primary screen, luminescence, Shh-LIGHT2 cells, Gli-luciferase. inhibition, % (concentration not given with the values). Shh-LIGHT2 Gli-luciferase reporter, 30 h. AID 2313, 2010. 22,000 compounds, 2.1% hits;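 active = replicate mean of 65% or more; inconclusive = mean lower but half the replicates past it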;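 note: pathway switched on by Shh-conditioned medium diluted 1 in 25 in low serum; 100 nL library stock added to about 40 µL; 0% = median of neutral wells and 100% = positive control level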
* marks the source's active call; other numbers are inactive results; ? = inconclusive; / = not tested or not shown.

SMILES	YB-1 expr inh	MITF inhib	PD-1 reverse act	Hedgehog inh
C[C@@H]1CN([C@H](C)CO)C(=O)c2cccc(NC(=O)Nc3ccc(C(F)(F)F)cc3)c2O[C@H]1CN(C)C(=O)NC1CCCCC1	0.15	32	-6.7	-5
Cc1ccc(-c2ccc(CCC(=O)O)n2-c2ccc(N(C)C)cc2)cc1	/	0	0.3	/
C[C@H](CO)N1C[C@H](C)[C@H](CN(C)Cc2ccc(-c3ccccc3)cc2)Oc2ccc(NC(=O)c3ccncc3)cc2CC1=O	-0.32	2	0.1	?
O=C(CC1C(=O)NCCN1C(=S)Nc1ccccc1)Nc1ccc2c(c1)OCCO2 (centres undefined)	/	-32	2.5	/
OC[C@H]1O[C@@H](OCc2ccccc2)[C@H](O[C@@H]2OC[C@](O)(CO)[C@H]2O)[C@@H](O)[C@@H]1O	0.35	/	/	5
COC(=O)COc1cccc(NC(=O)c2ccc(Cl)c(Cl)c2)c1	/	4	-0.3	/
NC(N)=NC(N)=Nc1cc(-c2cccs2)[nH]n1	0.23	-37	-1.2	/
C[C@@H]1CN([C@H](C)CO)C(=O)c2cc(NS(C)(=O)=O)ccc2O[C@@H]1CN(C)S(=O)(=O)c1ccc(F)cc1	0.12	-11	1.0	/
C[C@@H]1CN([C@@H](C)CO)C(=O)c2cc(NC(=O)CCC(F)(F)F)ccc2O[C@@H]1CN(C)S(=O)(=O)c1ccc(Cl)cc1	-0.051	1	0.0	19
COc1ccc(S(=O)(=O)Nc2ccc3c(c2)CC(=O)N([C@@H](C)CO)C[C@@H](C)[C@@H](CN(C)Cc2ccccc2)O3)cc1	0.2	-29	2.4	-36
COc1ccc(S(=O)(=O)Nc2ccc3c(c2)C(=O)N([C@@H](C)CO)C[C@@H](C)[C@@H](CN(C)Cc2ccc(C(F)(F)F)cc2)O3)cc1	-0.049	53	0.5	39
C[C@H]1CN([C@@H](C)CO)C(=O)c2cc(NC(=O)c3ccncc3)ccc2O[C@@H]1CN(C)S(=O)(=O)c1ccccc1	0.17	-1	/	/
COc1ccc(CN(C)C[C@H]2Oc3ccc(NS(=O)(=O)c4ccc(C)cc4)cc3C(=O)N([C@H](C)CO)C[C@@H]2C)cc1	-0.23	-13	-0.8	-28
C[C@H]1CN([C@@H](C)CO)C(=O)Cc2cc(NC(=O)NC3CCCCC3)ccc2O[C@H]1CN(C)Cc1ccc(C(F)(F)F)cc1	-0.15	23	/	-4
Cn1nnc2cc(NC(=O)NCCO)ccc21	/	-12	-2.5	/
Cc1cc2c(=O)n(Cc3ccco3)c(SCC(=O)c3ccc(Cl)s3)nc2s1	/	54	-3.0	/
COc1ccc(NC(=O)N(C)C[C@@H]2Oc3ccc(NC(=O)Nc4c(C)noc4C)cc3CC(=O)N([C@@H](C)CO)C[C@@H]2C)cc1	0.44	-5	0.9	8
CN/C(=C/[N+](=O)[O-])NCCSCc1csc(CN(C)C)n1	3.8*	0	-1.2	-6
COC(=O)c1ccc(NC(=O)CSc2nnc(-c3cccc(Cl)c3)n2C)cc1	/	3	2.0	/
C[C@@H]1CN([C@H](C)CO)C(=O)c2cccc(NC(=O)C3CC3)c2O[C@H]1CN(C)Cc1ccc(-c2ccccc2)cc1	-0.48	29	-0.3	-14
Cc1noc(C)c1S(=O)(=O)Nc1ccc2c(c1)CC(=O)N([C@@H](C)CO)C[C@H](C)[C@H](CN(C)C(=O)Nc1ccc(F)cc1)O2	-0.16	-12	1.7	-40
COc1ccc(NC(=O)Nc2ccc3c(c2)C(=O)N([C@H](C)CO)C[C@H](C)[C@H](CN(C)S(=O)(=O)c2ccccc2)O3)cc1	0.16	-36	-0.9	14
Cc1ccc(S(=O)(=O)N(C)C[C@@H]2Oc3c(NC(=O)NC4CCCCC4)cccc3C(=O)N([C@H](C)CO)C[C@@H]2C)cc1	-0.093	43	-4.3	107*
CSc1cccc(NC(=O)CSc2nnc(N)s2)c1	/	-15	-1.3	/
C[C@H]1CN([C@@H](C)CO)C(=O)Cc2cc(NC(=O)Nc3ccc(C(F)(F)F)cc3)ccc2O[C@@H]1CN(C)C(=O)NC1CCCCC1	0.021	-7	0.1	11
COc1ccc(S(=O)(=O)N(C)C[C@@H]2Oc3c(NS(=O)(=O)c4ccc(Cl)cc4)cccc3C(=O)N([C@@H](C)CO)C[C@@H]2C)cc1	-0.28	2	/	9
C=C1[C@H]2CC[C@H](C(=O)O)[C@@]23CC[C@H](C3)C1(C)C	0.62	-5	0.7	-2
CCOc1c(O)ccc(C(c2c[nH]c3ccccc23)c2c[nH]c3ccccc23)c1[N+](=O)[O-]	/	-15	-1.2	/
COc1ccc(S(=O)(=O)N(C)C[C@@H]2Oc3ccc(NS(=O)(=O)c4c(C)noc4C)cc3CC(=O)N([C@@H](C)CO)C[C@@H]2C)cc1	-0.34	-6	/	-6
CCC1(C)Cc2ccccc2-c2nc(NCCCO)n(-c3ccc(C)cc3)c(=O)c21 (centres undefined)	/	-10	-4.6	/
C[C@H](CO)N1C[C@H](C)[C@@H](CN(C)Cc2ccc(C(F)(F)F)cc2)Oc2ccc(NC(=O)CCC(F)(F)F)cc2C1=O	-0.12	3	1.0	-2
C[C@H]1CN([C@@H](C)CO)C(=O)c2cc(NC(=O)Nc3ccccc3)ccc2O[C@@H]1CN(C)C(=O)Nc1ccc(F)cc1	-0.31	2	1.4	-21
O=C(O)CC1CCC(CC(O)/C=C\C/C=C\CCCCCO)O1 (centres undefined)	1.6	40	1.0	38
C[C@H](CO)N1C[C@H](C)[C@@H](CN(C)C(=O)Nc2ccccc2)Oc2ccc(NC(=O)Cc3ccccc3)cc2C1=O	0.089	1	0.0	-2
COc1ccc(-n2c(SCC(=O)Nc3ccc(Cl)cc3Cl)nnc2-c2ccncc2)cc1	/	1	-1.2	/
C[C@@H]1CN([C@H](C)CO)C(=O)c2cc(NC(=O)Nc3ccc(F)cc3)ccc2O[C@H]1CN(C)Cc1ccccc1	-0.33	-8	0.0	/
C[C@@H]1CN([C@@H](C)CO)C(=O)c2cccc(NC(=O)Nc3cccc4ccccc34)c2O[C@@H]1CN(C)Cc1ccc2c(c1)OCO2	0.049	-4	-2.1	-65
C[C@@H]1CN([C@H](C)CO)C(=O)c2cc(NC(=O)CCN3CCOCC3)ccc2O[C@@H]1CN(C)Cc1ccc(Cl)c(Cl)c1	0.18	-13	0.4	-17
Cc1ccc(S(=O)(=O)Nc2cccc3c2O[C@H](CN(C)C(=O)Nc2ccc(F)cc2)[C@@H](C)CN([C@H](C)CO)C3=O)cc1	-0.33	-7	/	-38
C[C@H]1CN([C@@H](C)CO)C(=O)c2cc(NS(=O)(=O)c3ccccc3)ccc2O[C@@H]1CN(C)Cc1ccc(Cl)c(Cl)c1	0.5	-3	-4.3	?
C[C@H]1CN([C@@H](C)CO)C(=O)c2cc(NS(=O)(=O)c3ccccc3)ccc2O[C@H]1CN(C)C(=O)Nc1ccccc1	-0.14	-6	0.0	-7
C[C@H]1CN([C@@H](C)CO)C(=O)Cc2cc(NC(=O)Nc3ccc(C(F)(F)F)cc3)ccc2O[C@H]1CN(C)S(=O)(=O)c1cccs1	-0.22	38	-3.5	4
O=C(CCc1nc(-c2ccccc2Cl)no1)Nc1cccc([N+](=O)[O-])c1	/	-6	0.7	/
COC(=O)C1=CO[C@@H](O[C@@H]2O[C@H](CO)[C@@H](O)[C@H](O)[C@H]2O)[C@H]2[C@@H]1[C@H](OC(=O)/C=C\c1ccc(O)cc1)C[C@]2(C)OC(C)=O	1.7	-2	0.3	11
C[C@H]1CN([C@@H](C)CO)C(=O)Cc2cc(NC(=O)Nc3ccc(F)cc3)ccc2O[C@H]1CN(C)Cc1ccc2c(c1)OCO2	-0.065	0	1.4	-26
COc1ccc2c(OC)c3ccoc3nc2c1OC	-0.2	-16	/	-51
Cc1sc2nc(SCc3nc(-c4ccccc4)no3)n(-c3ccccc3)c(=O)c2c1C	/	3	-0.2	/
Cc1ncc([N+](=O)[O-])n1CC(=O)N(C)c1ccccc1	/	0	1.0	/
C[C@@H]1CN([C@H](C)CO)C(=O)c2cccc(NC(=O)Nc3ccc4c(c3)OCO4)c2O[C@H]1CN(C)Cc1ccc(-c2ccccc2)cc1	0.00089	4	-3.0	2
C[C@H]1CN([C@@H](C)CO)C(=O)c2cc(NS(=O)(=O)c3ccccc3)ccc2O[C@H]1CN(C)S(=O)(=O)c1ccc(Cl)cc1	0.059	-9	-1.0	8

Four entries drawn at random from the list so far:
SMILES	YB-1 expr inh	MITF inhib	PD-1 reverse act	Hedgehog inh
COC(=O)C1=CO[C@@H](O[C@@H]2O[C@H](CO)[C@@H](O)[C@H](O)[C@H]2O)[C@H]2[C@@H]1[C@H](OC(=O)/C=C\c1ccc(O)cc1)C[C@]2(C)OC(C)=O	1.7	-2	0.3	11
C[C@H]1CN([C@@H](C)CO)C(=O)c2cc(NS(=O)(=O)c3ccccc3)ccc2O[C@H]1CN(C)C(=O)Nc1ccccc1	-0.14	-6	0.0	-7
C[C@H]1CN([C@@H](C)CO)C(=O)Cc2cc(NC(=O)Nc3ccc(F)cc3)ccc2O[C@H]1CN(C)Cc1ccc2c(c1)OCO2	-0.065	0	1.4	-26
C[C@H]1CN([C@@H](C)CO)C(=O)c2cc(NS(=O)(=O)c3ccccc3)ccc2O[C@H]1CN(C)S(=O)(=O)c1ccc(Cl)cc1	0.059	-9	-1.0	8

Back to the main list, starting four compounds before the break.
SMILES	YB-1 expr inh	MITF inhib	PD-1 reverse act	Hedgehog inh
Cc1sc2nc(SCc3nc(-c4ccccc4)no3)n(-c3ccccc3)c(=O)c2c1C	/	3	-0.2	/
Cc1ncc([N+](=O)[O-])n1CC(=O)N(C)c1ccccc1	/	0	1.0	/
C[C@@H]1CN([C@H](C)CO)C(=O)c2cccc(NC(=O)Nc3ccc4c(c3)OCO4)c2O[C@H]1CN(C)Cc1ccc(-c2ccccc2)cc1	0.00089	4	-3.0	2
C[C@H]1CN([C@@H](C)CO)C(=O)c2cc(NS(=O)(=O)c3ccccc3)ccc2O[C@H]1CN(C)S(=O)(=O)c1ccc(Cl)cc1	0.059	-9	-1.0	8
O=S1(=O)CCC(NC(=S)N2CCCCC2)C1 (centres undefined)	0.37	5	-0.1	2
C[C@@H]1CN([C@H](C)CO)C(=O)c2cc(NC(=O)C3CC3)ccc2O[C@@H]1CN(C)Cc1ccc(Oc2ccccc2)cc1	0.35	1	-1.8	/
CC(C)OC(=O)CSc1nnc(-c2ccccc2F)n1-c1ccccc1	/	-4	0.8	/
COc1ccccc1NC(=O)c1ccccc1NC(=O)CCc1ccccc1	/	-14	-1.7	/
COc1ccc(S(=O)(=O)Nc2ccc3c(c2)C(=O)N([C@@H](C)CO)C[C@@H](C)[C@@H](CN(C)Cc2ccncc2)O3)cc1	-0.092	5	1.1	-6
C[C@H](CO)N1C[C@H](C)[C@@H](CN(C)Cc2ccncc2)Oc2ccc(NC(=O)CCN3CCOCC3)cc2C1=O	0.023	3	1.8	-13
Cc1noc(C)c1S(=O)(=O)N(C)C[C@H]1Oc2c(NC(=O)c3ccc(-c4nccs4)cc3)cccc2C(=O)N([C@H](C)CO)C[C@@H]1C	-0.045	4	/	-9
C[C@@H]1CCCCO[C@H](CN(C)Cc2ccncc2)[C@@H](C)CN([C@H](C)CO)C(=O)c2cc(NS(=O)(=O)c3cccs3)ccc2O1	-0.16	-9	-0.2	16
C[C@@H]1CN([C@H](C)CO)C(=O)c2cccc(NS(=O)(=O)c3ccc(F)cc3)c2O[C@H]1CN(C)Cc1ccc(Cl)c(Cl)c1	-0.36	-19	2.5	-25
CCOC(=O)c1c(NC(=O)CSc2nnc(C)o2)sc(C)c1C	/	-15	-0.8	/
C[C@@H]1CN([C@@H](C)CO)C(=O)Cc2cc(NS(=O)(=O)c3ccccc3)ccc2O[C@@H]1CN(C)C(=O)Nc1ccc2c(c1)OCO2	-0.04	-2	-0.4	-19
COc1ccc(CN(C)C[C@H]2Oc3ccc(NC(=O)CCCN(C)C)cc3C(=O)N([C@H](C)CO)C[C@H]2C)cc1	0.14	8	1.1	-2
C[C@@H]1CN([C@H](C)CO)C(=O)c2cc(NS(=O)(=O)c3cn(C)cn3)ccc2O[C@H]1CN(C)Cc1ccc2c(c1)OCO2	-0.19	-5	/	-31
Cc1cc(C)c2c(n1)sc1c(=O)n(NC(=O)Nc3ccccc3)c(C)nc12	/	-3	0.2	-2
CCN(CCS(=O)(=O)c1ccccc1)S(=O)(=O)c1ccc(C)cc1	-0.096	-5	-1.3	-21
CC(C)c1ccc(NN2C(=O)CC(c3ccccc3)C2=O)cc1 (centres undefined)	0.51	-31	-0.6	-51
COc1ccc(NC(=O)Nc2ccc3c(c2)C(=O)N([C@@H](C)CO)C[C@@H](C)[C@H](CN(C)C(=O)Nc2ccc4c(c2)OCO4)O3)cc1	-0.021	-2	/	-71
Cc1nc(SC2CCCCN(C(=O)c3ccc(Cl)cc3)C2=O)c2c3c(sc2n1)CCCC3 (centres undefined)	-0.2	-21	0.1	19

The list is partial. The share of hits here may be higher or lower than overall.
